From PubChem BioAssay
D2 PAM: human D2 receptor positive allosteric modulation; potentiation, % (concentration not given with the values); DiscoveRx D2 beta-arrestin cells, luminescence, 90 min; 100% = 57 uM dopamine signal; P14416; actives 0.23% (n = 360,000); active = potentiation of 50% or more; inconclusive = 30% to 50%; inactive = 30% or less;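 note: compound concentration not given in the record; tested on top of an EC20 dose of dopamine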
Target sequence (P14416 whole entry, looked up): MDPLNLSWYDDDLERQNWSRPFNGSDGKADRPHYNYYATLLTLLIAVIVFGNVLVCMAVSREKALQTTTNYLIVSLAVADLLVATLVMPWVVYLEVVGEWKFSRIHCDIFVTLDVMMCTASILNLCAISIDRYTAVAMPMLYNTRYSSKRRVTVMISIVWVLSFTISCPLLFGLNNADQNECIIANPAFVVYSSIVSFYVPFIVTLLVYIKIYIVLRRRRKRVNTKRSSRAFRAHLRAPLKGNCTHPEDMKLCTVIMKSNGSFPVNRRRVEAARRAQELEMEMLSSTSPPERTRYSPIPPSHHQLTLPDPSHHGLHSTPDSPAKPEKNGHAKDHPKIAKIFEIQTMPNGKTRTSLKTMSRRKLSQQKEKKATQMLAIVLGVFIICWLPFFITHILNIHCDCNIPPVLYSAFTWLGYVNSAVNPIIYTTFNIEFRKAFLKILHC
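PathHunter D2 cells, attached overnight at 37 deg C, received compound in DMSO plus dopamine at EC20 (50 nM final) for 90 min at 37 deg C. Beta-arrestin recruitment was read as luminescence after 1 h with detection reagent at ambient temperature.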
PINK1 expr mod: changes PINK1 expression | PINK1 immunofluorescence, high-content cytometry, 24 h | Potency, µM (series often up to 76.6 µM), inactives show at the highest dose activation (PINK1 increase), most hits filed as activators | actives 0.2% (n = 410,000) | AID 624263; active = well fitted activation curve with a large enough effect; inconclusive = small, poorly fitted or top-dose-only effect; inactive = flat fitted curve, though single readings scatter; cell line not stated here;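 note: potency is the fitted concentration of half-maximal effect; % of control where 0% means no effect; nearly all actives have a fitted effect of over 65% in size; a mitochondrial uncoupler was the plate control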
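PINK1 protein, normally rapidly degraded, was detected by immunofluorescence after 24 hour compound treatment of a stable cell line. Titration data (5 concentrations) came from laser-scanning cytometry, with CCCP-treated wells as controls.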
TRPML1 ag: agonists of human TRPML1 channel; TRPML1-expressing cells, Ca2+ dye fluorescence, FDSS; host cell line not named in the record; reference of the full effect not given here; activation, % (concentration not given with the values); actives 0.12% (n = 410,000); AID 624414; in the data active = activation above about 50%; inconclusive = about 30% to 50%; inactive = below about 30%; note: 0% is about no effect; the text of the record puts the active cut at 80%
Target sequence (Q9GZU1 whole entry, looked up): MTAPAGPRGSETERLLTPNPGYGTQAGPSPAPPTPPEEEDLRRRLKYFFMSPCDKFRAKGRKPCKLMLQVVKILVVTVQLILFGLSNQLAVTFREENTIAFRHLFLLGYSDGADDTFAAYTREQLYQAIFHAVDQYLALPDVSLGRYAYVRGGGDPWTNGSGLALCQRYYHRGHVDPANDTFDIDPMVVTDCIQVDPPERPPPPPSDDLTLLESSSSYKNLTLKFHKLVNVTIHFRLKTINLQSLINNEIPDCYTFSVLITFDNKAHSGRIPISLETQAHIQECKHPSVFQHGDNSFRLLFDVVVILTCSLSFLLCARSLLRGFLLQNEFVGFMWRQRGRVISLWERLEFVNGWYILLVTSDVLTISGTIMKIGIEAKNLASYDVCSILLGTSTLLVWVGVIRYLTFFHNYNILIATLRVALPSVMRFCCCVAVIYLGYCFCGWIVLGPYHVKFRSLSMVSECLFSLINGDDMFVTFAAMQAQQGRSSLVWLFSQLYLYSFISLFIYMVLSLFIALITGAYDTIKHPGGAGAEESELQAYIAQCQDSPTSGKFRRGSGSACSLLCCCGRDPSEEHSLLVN
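Cells: TRPML1-DL, 1X Tet inducer, ~16 h at 37 degrees C/5% CO2. Dye: ABD Ca8 no-wash + quencher, 45-90 min RT. Read: 10 s baseline, compound add, 110 s agonist phase; 54-4 EC80 (4uM final), 110 s antagonist phase.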
D2 ag: agonists of human D2 dopamine receptor (beta-arrestin) | P14416 | DiscoveRx PathHunter D2 beta-arrestin, luminescence, 90 min; 100% = 57 uM dopamine signal | activation, % (no concentration beside the values) | actives 0.084% (n = 360,000); in the data active = activation above about 40%; inconclusive = about 15% to 40%; inactive = below about 15%; note: compound concentration not given in the record; the text of the record calls up to 30% inactive
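Agonist mode: compounds alone added to overnight-plated D2 PathHunter cells for 90 min at 37 C, with 57 uM final dopamine (EC100) defining full response. Beta-arrestin recruitment detected by chemiluminescent reagent, read after 1 h at ambient temperature.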
Six1-Eya2 blk: Six1/Eya2 interaction inhibition; Q15475+O00167; AlphaScreen GST-Six1/His-Eya2 binding, biochemical; active compounds read low; control for the full effect not named in the record; activity change, % (concentration not given with the values); actives 0.56% (n = 360,000); AID 651725; in the data active = activity change below about -65%; inconclusive = about -30% to -65%; inactive = above about -30%; note: % is set by controls: 0 for no effect and ±100 for the full control effect
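AlphaScreen with GST-Six1 and His-Eya2 (5X mix: 250 nM and 500 nM), glutathione donor and nickel acceptor beads; buffer 50 mM Tris pH 8.0, 300 mM NaCl, 1 mM TCEP; 1 h at 37 C in the dark.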
TRPML1 inh: human mucolipin-1 channel inhibition; activity change, negative = inhibition, % (test concentration not listed); AID 624415; Q9GZU1; actives 0.02% (n = 390,000); TRPML1-inducible cells, Ca2+ dye fluorescence, FDSS; active compounds read low; inhibition of EC80 agonist-evoked calcium signal; in the data active means activity change below about -50%; inconclusive means about -30% to -50%; inactive means above about -30%;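 note: stimulus is agonist 54-4 at its EC80 concentration; % is set by controls: 0 for no effect and ±100 for the full control effect; compound concentration not given in the record; the text of the record puts the active cut at -80%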
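TRPML1-DL cells, Tet-induced overnight (~16 h, 37 °C) at 1,500 cells/well, were loaded with Ca8 no-wash dye plus quencher for 45-90 min at room temperature. Compounds were pinned during FDSS kinetic reading; agonist 54-4 at EC80 (4 uM final) then added.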
Starred values were filed as active, the others as inactive; ? = inconclusive; / = not tested or not shown; & = joins results of further samples; [ ] = remark or other dose.

SMILES | D2 PAM | PINK1 expr mod | TRPML1 ag | D2 ag | Six1-Eya2 blk | TRPML1 inh
Cc1cc(C)n(-c2ccc(C(=O)OCC(=O)Nc3ccc([N+](=O)[O-])cc3)cc2)n1 | -17 | 0.5% | -0.6 | 1.6 | -2 | -2
CCOC(=O)c1c(NC(=O)c2ccno2)c2cc([N+](=O)[O-])ccc2n1C | -13 | 4.1% | -0.1 | -1.3 | 2 | -26
CC(OC(=O)CN1C(=O)C2C3C=CC(C4CC34)C2C1=O)C(=O)c1ccccc1 (stereo unspecified) | -2 | -0.6% | 0.8 | 0.8 | 11 | 3
COc1ccc(NC(=O)c2oc3ccc(S(=O)(=O)N4CCCCC4)cc3c2C)cc1Cl | / | -0.7% | -0.6 | / | / | -3
Cc1cc(C(=O)Nc2c(C)nn(Cc3ccc(Cl)cc3)c2C)no1 | -9 | -0.5% | 0.5 | -4.2 | 3 | 52
CCn1c(=O)c([N+](=O)[O-])c(NCC2CCCO2)c2ccccc21 (stereo unspecified) | -17 | -0.8% | 0.4 | -5.9 | -12 | -7
CCN1CCN(C(=O)c2ccc3c(c2)N(Cc2ccc(F)cc2)C(=O)c2ccccc2S3(=O)=O)CC1 | / | -0.4% | 0.1 | / | / | -16
O=C(NCc1ccccc1Cl)c1ccc2nc([C@@H]3O[C@H](CO)[C@H](O)[C@H](O)[C@H]3O)[nH]c2c1 | -4 | 1.5% | -0.1 | -4.6 | 12 | /
COC(=O)C1=C(N)OC2=C(C(=O)CC(C)(C)C2)C1c1ccccc1OC (stereo unspecified) | -3 | -2.8% | 1.1 | -1.0 | 21 | 9
Cc1ccc(NC(=O)c2nc[nH]c2C(=O)N[C@@H](CCCCNC(=O)OC(C)(C)C)C(=O)OC(C)(C)C)cc1 | 2 | 3.3% | 1.9 | 0.3 | -3 | -6
Cc1ccc(C2CC(=O)Oc3cc(O)ccc32)cc1 (stereo unspecified) | -3 | -0.3% | 1.5 | -0.4 | 6 | -1
CCOc1ccc(-n2c(=O)[nH]c3sc4c(c3c2=O)CCCC4)cc1 | -9 | -0.1% | -0.3 | -1.6 | 3 | -4
COCCN(C(=S)Nc1cc(C)cc(C)c1)C(C)c1cccnc1 (stereo unspecified) | -18 | 1.5% | -0.5 | 0.0 | 2 | -6
CCOC(=O)c1cc2c(=O)n3ccccc3nc2n(CC(C)C)c1=NC(=O)C(C)(C)Oc1ccc(Cl)cc1 | / | 0.6% | 0.8 | / | / | 20
Cc1ccc(C(=O)NC(=S)N(C)C2CCCCC2)cc1 | -2 | -0.2% | -0.1 | -5.3 | -1 | 13
CCOc1ccccc1CNC(=O)C1CCC(=O)N1C(C)C (stereo unspecified) | 4 | -1.5%[38.3 µM] | -0.4 | 2.2 | 3 | -3
C#CCOCCOCCOCCNc1nc(N2CCN(C(=O)[C@H]([C@@H](C)CC)n3cc([C@@H](N)CC(C)C)nn3)CC2)nc(N2CCN(C(=O)[C@H](Cc3cc4ccccc4[nH]3)n3cc([C@@H](N)Cc4ccc(O)cc4)nn3)CC2)n1 | -17 | 5.3% | 0.2 | -5.9 | -27 | -15
O=C(Nc1cnn(C23CC4CC(CC(C4)C2)C3)c1)c1cnn2c(C(F)(F)F)cc(-c3ccco3)nc12 | -21 | / | -0.1 | -2.4 | -4 | 10
CCN1CCN(c2nc(SC)nc3sc4c(c23)CC(C)(C)OC4)CC1 | -13 | 7.1% | -1.6 | -6.0 | -3 | -1
Cc1nnc(NC(=O)CSc2nc3c(c(=O)n2C)SC(C)C3)s1 (stereo unspecified) | -14 | 3.6% | -0.8 | -4.9 | -1 | 3
COc1ccc(C2C(C(=O)Nc3ccc4c(c3)OCCO4)c3ccccc3C(=O)N2C)cc1 (stereo unspecified) | -11 | 5.4% | 1.2 | -1.4 | 0 | 2
CC(Oc1ccccc1)C(=O)Nc1nc2ccc(S(N)(=O)=O)cc2s1 (stereo unspecified) | / | 0.4% | 1.3 | / | / | -1
CS(=O)(=O)N(CC(=O)Nc1ccc(Br)cc1)c1ccccc1Br | / | 0.7% | 1.6 | / | / | 29
O=C(NCC1CCCCC1)c1cc(S(=O)(=O)N2CCOCC2)ccc1F | -21 | 1.8% | -0.2 | -4.1 | 2 | 6
O=C(c1cc(Sc2cccc(Cl)c2)nc2ccccc12)N1CCN(c2ccccn2)CC1 | -1 | -2.2% | 3.2 | 3.0 | -25 | 12

As a working copy, four of the compounds above.
SMILES | D2 PAM | PINK1 expr mod | TRPML1 ag | D2 ag | Six1-Eya2 blk | TRPML1 inh
Cc1cc(C)n(-c2ccc(C(=O)OCC(=O)Nc3ccc([N+](=O)[O-])cc3)cc2)n1 | -17 | 0.5% | -0.6 | 1.6 | -2 | -2
CCOC(=O)c1c(NC(=O)c2ccno2)c2cc([N+](=O)[O-])ccc2n1C | -13 | 4.1% | -0.1 | -1.3 | 2 | -26
CC(OC(=O)CN1C(=O)C2C3C=CC(C4CC34)C2C1=O)C(=O)c1ccccc1 (stereo unspecified) | -2 | -0.6% | 0.8 | 0.8 | 11 | 3
COc1ccc(NC(=O)c2oc3ccc(S(=O)(=O)N4CCCCC4)cc3c2C)cc1Cl | / | -0.7% | -0.6 | / | / | -3

(list continues)
SMILES | D2 PAM | PINK1 expr mod | TRPML1 ag | D2 ag | Six1-Eya2 blk | TRPML1 inh
CCc1nnc(NS(=O)(=O)c2ccc(NC(=S)NC(=O)c3ccc(Br)cc3)cc2)s1 | -22 | 3.6% | 1.4 | -7.6 | -3 | -11
COCCCNC(=O)CCc1c(C)nc2c(c(C)nn2-c2ccccc2)c1C | -6 | -0.3% | / | -1.4 | -9 | /
Cc1cc(C)c2c(n1)sc1c(=O)n(-c3ccccc3)c(=O)[nH]c12 | -5 | -0.6% | -0.5 | -3.5 | -17 | 3
COc1ccc(C2SCC(=O)N2C)cc1 (stereo unspecified) | 0 | 8.9%[38.3 µM] | 0.5 | -1.0 | -1 | 6
Cc1cc(=O)[nH]c(SCCOc2ccc3c(c2)CCC3)n1 | -3 | 0.6%[38.3 µM] | 1.9 | 3.4 | 2 | 7
N#CCC(=O)N/N=C\c1cccc(OC/C=C/c2ccccc2)c1 | 12 | 2.3% | 0.1 | -3.3 | -12 | -12
Cc1ccc(C(=O)CC2(O)C(=O)N(CCc3ccccc3)c3ccc(Br)cc32)cc1 (stereo unspecified) | / | -2.3% | 2.4 | / | / | -11
Cc1ccc(NC(=O)CN2C(=O)S/C(=C\C(=O)Nc3ccc(Cl)cc3)C2=O)cc1 | -9 | 0.2% | -0.4 | -5.8 | -6 | 5
Cc1cccc(OCC(=O)Nc2ccc3c4c(cccc24)CC3)c1C | 0 | 9.3% | 3.1 | -4.1 | 5 | -19
CC1CC(C)CN(C(=O)COC(=O)CNC(=O)C23CC4CC(CC(C4)C2)C3)C1 (stereo unspecified) | -8 | 0.2% | 0.3 | -4.4 | 6 | -8
COCCn1c(N)c(N(Cc2ccccc2)C(=O)COc2ccccc2F)c(=O)[nH]c1=O | -5 | 0.7% | -0.5 | -2.8 | 11 | -8
COc1ccc(NC(C)=O)cc1NC(=O)CN1CCN(CC(=O)Nc2ccc(Cl)cc2)CC1 | 7 | 1.3% | -1.1 | 0.5 | 5 | -2
CCOC(=O)c1cccc(NC(=O)CN2C(=O)C3C4C=CC(C4)C3C2=O)c1 (stereo unspecified) | 4 | -0.6% | -1.1 | -6.7 | 8 | -3
COc1ccc(C(C(=O)NCc2ccccc2)N(C(=O)Cn2nnc3ccccc32)c2ccc(F)cc2)cc1 (stereo unspecified) | / | -0.1% | 0.7 | / | / | 22
Cc1ccccc1OCC(O)Cn1c(SC(C)C)nc2c1c(=O)[nH]c(=O)n2C (stereo unspecified) | -2 | -3.1% | 2.0 | -0.1 | 5 | -21
CCCCOCCCNC(=O)c1ccccc1OCC | -8 | -0.7%[38.3 µM] | -0.6 | 0.9 | 4 | 18
CC(C)(C)NCCOc1ccc(Br)cc1 | -29 | 1.2% | -0.2 | -0.9 | 3 | 2
O=C(NCCc1ccccc1)C1CCCN1S(=O)(=O)c1ccc(Cl)cc1 (stereo unspecified) | -15 | -1.1% | 0.2 | -6.8 | 12 | 2
COc1ccccc1-c1cccc(-c2nc(C(=O)Nc3nccs3)cc3c2[C@H](CCO)N(C(C)=O)C3)c1 | / | 3.0% | -0.6 | / | -19 | /
O=C(NC1(C(F)(F)F)NC(=O)N(CC2CCCCC2)C1=O)c1ccco1 (stereo unspecified) | -1 | -3.0%[38.3 µM] | 1.3 | -1.4 | 10 | -2
O=C(COC(=O)c1n[nH]c2ccccc12)NC1CCCCC1 | -12 | -0.1% | 0.2 | -2.4 | -4 | 11
O=C(Cc1ccc(Cl)cc1)OCC(=O)N1CCCCCC1 | -9 | -0.8% | -0.2 | -1.5 | 11 | -2
O=CN1CCN(c2c([N+](=O)[O-])c(=O)oc3ccccc23)CC1 | -4 | -0.3% | -0.2 | -6.6 | 12 | -12
CCN(CC(=O)Nc1cccc(OC)c1)C(=O)C1CCN(C(=O)Nc2ccccc2)CC1 | -13 | -1.3% | 0.5 | -4.1 | 4 | -19
CC(C(=O)NCC1CCCCC1)N1CCN(S(=O)(=O)c2ccccc2F)CC1 (stereo unspecified) | 1 | 0.6% | -0.5 | -6.1 | -1 | -3
More entries follow.
SMILES | D2 PAM | PINK1 expr mod | TRPML1 ag | D2 ag | Six1-Eya2 blk | TRPML1 inh
CCOC(=O)c1ccc(NC(=O)CCCc2nc(-c3ccccc3Cl)no2)cc1 | / | 2.4% | 1.3 | / | / | -29
CC(=O)N1CCC(N(CCN2CCOCC2)C(=S)Nc2ccc(C)cc2)CC1 | -5 | 1.4% | -0.6 | -6.4 | 9 | -6
O=C(Cc1ccccc1)NCC(=O)N1CCCC1 | -6 | -1.0% | 0.0 | -2.8 | 4 | 12
COc1ccc(C(=O)Nc2ccc3c(c2)nc(CCNC(=O)c2ccco2)n3C)cc1 | 2 | 22% | 0.1 | -1.2 | 1 | 1
COc1ccccc1OCC(=O)/C=C1/N(C)c2ccccc2C1(C)C | -8 | 0.1% | 3.8 | -6.0 | 1 | 15
O=C(O)CSc1cccc2cccnc12 | -6&-26 | 1.8%&0.1% | -0.1&0.1 | 1.8&-0.1 | ? | -8&5

5 entries drawn at random from the list so far:
SMILES | D2 PAM | PINK1 expr mod | TRPML1 ag | D2 ag | Six1-Eya2 blk | TRPML1 inh
CC(=O)N1CCC(N(CCN2CCOCC2)C(=S)Nc2ccc(C)cc2)CC1 | -5 | 1.4% | -0.6 | -6.4 | 9 | -6
O=C(Cc1ccccc1)NCC(=O)N1CCCC1 | -6 | -1.0% | 0.0 | -2.8 | 4 | 12
O=C(O)CSc1cccc2cccnc12 | -6&-26 | 1.8%&0.1% | -0.1&0.1 | 1.8&-0.1 | ? | -8&5
CCOC(=O)c1ccc(NC(=O)CCCc2nc(-c3ccccc3Cl)no2)cc1 | / | 2.4% | 1.3 | / | / | -29
COc1ccc(C(=O)Nc2ccc3c(c2)nc(CCNC(=O)c2ccco2)n3C)cc1 | 2 | 22% | 0.1 | -1.2 | 1 | 1
